BJeLR lethal: BJeLR cell viability loss | BJeLR (HRASV12) viability, CellTiter-Glo ATP luminescence, 48 h; reference of the scale not given here | inhibition, % (concentration not given with the values) | hit rate 0.17% among 300,000;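 active means replicate mean above 50%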;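 further: 50 nL library stock added to about 25 µL; numbers are from one replicate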
PrP 5UTR inh: inhibition of PrP 5' UTR reporter expression; cell-based PrP 5' UTR mRNA reporter, plate reader; inhibition, % (concentration not given with the values); hit rate 0.35% among 340,000; AID 488862;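 active means every replicate at 50% or more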;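 further: 0 = median of the neutral control wells; tested in H4 reporter cells; numbers are from one replicate; inactives centre near -14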
Autofluor counter: flagged as autofluorescent in microsphere protease counterscreen | fluorescence intensity (concentration not given with the values) | AID 624483 | hit rate 3.1% among 360,000 | compound autofluorescence counterscreen, microsphere flow cytometry; hits give high values;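 active means at least 3 SD above the mean of all compounds, about 16000 in these data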;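 further: 100 nL of 1 mM stock went into each well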
* marks the source's active call; other numbers are inactive results; x = no result given. The list is partial; rates above refer to the full screens.

no.	SMILES	PrP 5UTR inh	BJeLR lethal	Autofluor counter
1	CCC(=O)O[C@]1(C(=O)SCF)[C@H](C)C[C@H]2[C@@H]3C[C@H](F)C4=CC(=O)C=C[C@]4(C)[C@@]3(F)[C@@H](O)C[C@@]21C	x	-9	x
2	CCCCCCc1ccc(O)cc1O	x	-17	x
3	COc1ccccc1OCCNCC(O)COc1cccc2[nH]c3ccccc3c12 (stereo not given)	x	3	x
4	COc1ccc(-n2[nH]c3c(cnc4ccccc43)c2=O)cc1	x	x	4374
5	Cc1cc(C)cc(OCC2CNC(=O)O2)c1 (stereo not given)	x	x	3377
6	COc1c(O)cc2c(c1O)[C@@H]1OC(CO)C(O)C(O)[C@H]1OC2=O (stereo not given in full)	-21	x	5672
7	Nc1c2c(nc3ccccc13)CCCC2O (stereo not given)	-48	x	4932
8	O=C1Cc2c([nH]c3ccc([N+](=O)[O-])cc23)-c2ccccc2N1	-24	x	4043

Reprinted from above (2 entries):
no.	SMILES	PrP 5UTR inh	BJeLR lethal	Autofluor counter
7	Nc1c2c(nc3ccccc13)CCCC2O (stereo not given)	-48	x	4932
8	O=C1Cc2c([nH]c3ccc([N+](=O)[O-])cc23)-c2ccccc2N1	-24	x	4043

Profiles, looked up by structure. Order of screens: PrP 5UTR inh, BJeLR lethal, Autofluor counter
Record of `Cc1cc(C)cc(OCC2CNC(=O)O2)c1` (stereo not given) = x, x, 3377
Record of `COc1ccc(-n2[nH]c3c(cnc4ccccc43)c2=O)cc1` = x, x, 4374
Record of `O=C1Cc2c([nH]c3ccc([N+](=O)[O-])cc23)-c2ccccc2N1` = -24, x, 4043

Source: PubChem BioAssay
